Source: PubChem
Rce1 inhib: yeast Rce1p protease inhibitors, primary screen, biochemical, fluorescence, cell-free homogeneous; yeast membranes, quenched prenylated peptide cleavage fluorescence; AID 2563, 2010; calls only; 290,000 compounds, 0.27% hits;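 active means fall in fluorescence gain of 50% or more versus controls, with final raw signal at or below 3038400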;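 further: plate controls were neutral control wells for no effect and wells lacking membranes for full effect; tested at 10 µM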
Target sequence (Q03530 whole entry, looked up): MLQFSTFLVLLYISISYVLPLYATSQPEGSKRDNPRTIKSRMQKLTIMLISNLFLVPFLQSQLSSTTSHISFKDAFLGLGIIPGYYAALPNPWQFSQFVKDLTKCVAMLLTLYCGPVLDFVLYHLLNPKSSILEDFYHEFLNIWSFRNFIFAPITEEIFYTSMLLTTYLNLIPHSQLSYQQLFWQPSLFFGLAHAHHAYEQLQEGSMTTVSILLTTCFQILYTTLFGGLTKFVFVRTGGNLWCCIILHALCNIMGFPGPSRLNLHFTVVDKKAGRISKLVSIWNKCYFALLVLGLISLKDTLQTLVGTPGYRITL
CSC inhib: cancer stem cell viability inhibitors, primary screen, luminescence; cancer stem cell-like cells viability; inhibition, % at 7.5 µM; 300,000 compounds, 1.1% hits; AID 2717, 2010;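 active means mean at 75% or more and at least half the replicates too; tested in HMLE shEcad cells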;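 further: 0% = median of negative and 100% = median of positive control wells; the first replicate is given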
UUG fidelity: modulators of yeast start codon fidelity, primary screen, whole organism, S. cerevisiae, single point, plate reader; S. cerevisiae UUG-firefly luciferase reporter, luminescence/redox ratio; activity score, % at 18.7 µM; 350,000 compounds, 0.13% hits; AID 602363, 2012;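 active means replicate mean at a twofold rise or more, about +100% in these data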;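 further: firefly luciferase made from a UUG start codon reports start codon fidelity; reporter light over untreated wells divided by growth signal over untreated wells; some hits fall short of that in this replicate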
MT1-MMP act inh: blockers of MT1-MMP proenzyme processing, primary screen, HT1080 RFP-PRO-GFP cells, GFP/RFP fluorescence; Matrix metalloproteinase-14 (Homo sapiens), P50281; GFP/RFP ratio fluorescence, overnight; percent of plate control window, DMSO zero; GFP/RFP ratio change, % at 20 µM; 360,000 compounds, 0.061% hits; AID 651647, 2012;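 active means GFP/RFP ratio change of at least 30% with cell ATP level not reduced by more than half and red fluorescence within 50% of control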; further: strong numbers were not always called active
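Read-out: GFP/RFP fluorescence ratio; Test system: RFP-PRO-GFP reporter HT1080 cells; Compound dosing: single-point 20 µM compound, 1% DMSO; Times: overnight compound exposure at 37 °C.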
HIV Env fusion: inhibitors of HIV-1 Env-driven cell-cell fusion, primary screen, HeLa-JRFL effector, CEM21 target cells, luciferase | inhibition, % at 12.3 µM | 360,000 compounds, 1.1% hits;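 active means mean replicate inhibition score of at least 50 and every replicate individually at or above 50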;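 further: 0% = plate neutral controls and 100% = maraviroc near 300 nM; one replicate is shown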
eIF4H inh: human eIF4H binding inhibitors, primary screen, translation initiation inhibitor project, biochemical, uHTS, fluorescence polarization; Eukaryotic translation initiation factor 4H (Homo sapiens), Q15056; eIF4H fluorescence polarization binding assay; inhibition, % at 35 µM; 290,000 compounds, 0.94% hits; AID 2012, 2009;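 active means 50% or more with normal probe brightness, or confirmed in later tests; about a fifth of its hits are not listed in these tables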;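 further: calls also rest on retests at 20 µM and on dose response follow-up; 0% = protein and probe with vehicle and 100% = probe without protein; strong numbers were not always called active; many hits fall short of the cut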
PABP polyA inh: PABP poly(A) RNA binding inhibitors, primary screen, biochemical, fluorescence polarization, uHTS | inhibition, % at 35 µM | Polyadenylate-binding protein 1 (Homo sapiens), P11940 | 290,000 compounds, 1% hits;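 active means 50% or more with normal probe brightness, or confirmed in later tests; about a fifth of its hits are not listed in these tables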;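 further: calls also rest on retests at 20 µM and on dose response follow-up; controls were probe without protein and protein plus probe with vehicle; some compounds called inactive have numbers as strong as hits; many hits fall short of the cut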
Target sequence (P11940 whole entry, looked up): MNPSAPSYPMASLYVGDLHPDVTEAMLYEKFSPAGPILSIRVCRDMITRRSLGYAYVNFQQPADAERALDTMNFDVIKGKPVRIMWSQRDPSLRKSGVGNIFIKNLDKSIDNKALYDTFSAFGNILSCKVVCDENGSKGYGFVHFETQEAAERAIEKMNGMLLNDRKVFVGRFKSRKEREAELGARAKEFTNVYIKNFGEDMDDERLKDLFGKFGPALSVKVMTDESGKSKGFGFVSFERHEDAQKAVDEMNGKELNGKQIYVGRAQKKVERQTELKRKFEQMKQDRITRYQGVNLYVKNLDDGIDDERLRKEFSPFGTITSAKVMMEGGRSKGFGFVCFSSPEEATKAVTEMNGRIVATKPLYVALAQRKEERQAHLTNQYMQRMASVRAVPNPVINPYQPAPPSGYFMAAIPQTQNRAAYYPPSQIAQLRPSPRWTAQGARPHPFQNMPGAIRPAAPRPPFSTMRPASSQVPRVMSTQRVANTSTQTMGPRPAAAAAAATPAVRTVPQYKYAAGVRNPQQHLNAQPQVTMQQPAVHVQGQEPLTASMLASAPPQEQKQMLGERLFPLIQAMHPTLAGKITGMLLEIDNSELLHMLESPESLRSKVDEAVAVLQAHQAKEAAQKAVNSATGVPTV
MT1-MMP act inh RFP: also measured in MT1-MMP act inh; calls as there; RFP signal change, %; measured here: RFP expression control read;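 0 = vehicle wells; hits needed this value within 50% of zero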
* hit, by the source's call.

Preview (three entries):
How did COc1cccc(-c2cc(C(=O)N3N=C(C)CC3(O)C(F)F)c3ccccc3n2)c1 (stereo unspecified) do in these assays?
Rce1 inhib: inactive; MT1-MMP act inh: -2; HIV Env fusion: -2; eIF4H inh: 0; PABP polyA inh: -10; MT1-MMP act inh RFP: 0

What do the screens show for `CCOC(=O)c1sc(C)c2c(=O)n(CC(=O)c3ccc(Br)cc3)nnc12`?
Rce1 inhib: inactive; CSC inhib: -5; UUG fidelity: -17; MT1-MMP act inh: 1; eIF4H inh: -5; PABP polyA inh: 2; MT1-MMP act inh RFP: 6

What do the screens show for `O=C(c1ccc2c(c1)OCO2)C1CCCN(Cc2ccc3cccc(F)c3n2)C1` (stereo unspecified)?
Rce1 inhib: inactive; CSC inhib: -11; MT1-MMP act inh: 0; HIV Env fusion: -13; eIF4H inh: 7; PABP polyA inh: 7; MT1-MMP act inh RFP: 3

The whole of this part (from the top)
How did COc1cccc(-c2cc(C(=O)N3N=C(C)CC3(O)C(F)F)c3ccccc3n2)c1 (stereo unspecified) do in these assays?
Rce1 inhib: inactive; MT1-MMP act inh: -2; HIV Env fusion: -2; eIF4H inh: 0; PABP polyA inh: -10; MT1-MMP act inh RFP: 0

What do the screens show for `CCOC(=O)c1sc(C)c2c(=O)n(CC(=O)c3ccc(Br)cc3)nnc12`?
Rce1 inhib: inactive; CSC inhib: -5; UUG fidelity: -17; MT1-MMP act inh: 1; eIF4H inh: -5; PABP polyA inh: 2; MT1-MMP act inh RFP: 6

What do the screens show for `O=C(c1ccc2c(c1)OCO2)C1CCCN(Cc2ccc3cccc(F)c3n2)C1` (stereo unspecified)?
Rce1 inhib: inactive; CSC inhib: -11; MT1-MMP act inh: 0; HIV Env fusion: -13; eIF4H inh: 7; PABP polyA inh: 7; MT1-MMP act inh RFP: 3

How did Cc1ccc(NC(=O)CSc2nnc(Cc3cccn3C)n2-c2ccc(F)cc2)cc1 do in these assays?
Rce1 inhib: inactive; CSC inhib: -3; UUG fidelity: -12; MT1-MMP act inh: -1; HIV Env fusion: 5; eIF4H inh: -3; PABP polyA inh: -18; MT1-MMP act inh RFP: -3

What do the screens show for `O=C1C2C3C=CC(C3)C2C(=O)N1c1nccs1` (stereo unspecified)?
CSC inhib: 4; UUG fidelity: -15; MT1-MMP act inh: 3; HIV Env fusion: -39; eIF4H inh: 0; PABP polyA inh: -4; MT1-MMP act inh RFP: 5

Results for CCOC(=O)C1CCCCN1Cc1cn[nH]c1-c1ccc(F)cc1F (stereo unspecified) ?
Rce1 inhib: inactive; CSC inhib: 4; MT1-MMP act inh: -3; HIV Env fusion: -4; eIF4H inh: -5; PABP polyA inh: 6; MT1-MMP act inh RFP: 1

What do the screens show for `CCOC(=O)/C(C#N)=C\c1ccco1`?
Rce1 inhib: inactive; CSC inhib: -7; UUG fidelity: -21; MT1-MMP act inh: -7; HIV Env fusion: 4; eIF4H inh: 24; PABP polyA inh: 13; MT1-MMP act inh RFP: 6

How did O[C@@H]1COC(Nc2ccc(N=Nc3ccccc3)cc2)C[C@@H]1O (stereo partly specified) do in these assays?
Rce1 inhib: inactive; CSC inhib: 51; HIV Env fusion: -66; eIF4H inh: 3; PABP polyA inh: 4

What do the screens show for `Cc1ccc2c(c1C)NC(=O)C21N2CCCC2C(C(=O)c2ccc3ccccc3c2)C12C(=O)Nc1ccccc12` (stereo unspecified)?
UUG fidelity: -7; MT1-MMP act inh: -11; HIV Env fusion: -113; eIF4H inh: -2; PABP polyA inh: 8; MT1-MMP act inh RFP: -8

What do the screens show for `CCCCn1c(N)c(N(CCC(C)C)C(=O)C2CCCO2)c(=O)[nH]c1=O` (stereo unspecified)?
Rce1 inhib: inactive; CSC inhib: 2; MT1-MMP act inh: -1; HIV Env fusion: 23; MT1-MMP act inh RFP: 1

What do the screens show for `COc1ccc(Cl)cc1NC(=O)CSc1nc(NS(=O)(=O)c2ccccc2)cc(=O)[nH]1`?
Rce1 inhib: inactive; UUG fidelity: -13; MT1-MMP act inh: -1; HIV Env fusion: 0; eIF4H inh: -4; PABP polyA inh: 8; MT1-MMP act inh RFP: 3

Results for Cc1cc(=O)[nH]c(SCC(=O)NC2CCCc3ccccc32)n1 (stereo unspecified) ?
Rce1 inhib: inactive; CSC inhib: -6; UUG fidelity: -15; MT1-MMP act inh: 8; HIV Env fusion: 6; eIF4H inh: 2; PABP polyA inh: 1; MT1-MMP act inh RFP: 8

What do the screens show for `COc1cc(OC)cc(-c2noc(-c3csc([C@H]4C[C@H](O)[C@@H](CO)O4)n3)n2)c1`?
UUG fidelity: 5; MT1-MMP act inh: 5; HIV Env fusion: -39; MT1-MMP act inh RFP: 2

Results for Cc1ccc(NC(=O)C(=O)NCc2ccccn2)cc1 ?
CSC inhib: -7; MT1-MMP act inh: 7; HIV Env fusion: -6; eIF4H inh: -1; PABP polyA inh: -5; MT1-MMP act inh RFP: 4

How did CCOC(=O)c1cnc(-n2nc(C)cc2C)nc1NNc1ncc(-c2ccccc2)cn1 do in these assays?
Rce1 inhib: inactive; CSC inhib: 37; eIF4H inh: 13; PABP polyA inh: -1

Results for O=[N+]([O-])c1cc(C(F)(F)F)cc([N+](=O)[O-])c1Sc1n[nH]c(C(F)(F)F)n1 ?
Rce1 inhib: inactive; CSC inhib: 1; UUG fidelity: -10; MT1-MMP act inh: 6; HIV Env fusion: 4; eIF4H inh: -4; PABP polyA inh: 2; MT1-MMP act inh RFP: 2

How did COc1ccc(C(=O)/C=C/C(=O)N(Cc2ccc3c(c2)OCO3)C(C(=O)NC2CCCCC2)c2ccncc2)c(O)c1 (stereo unspecified) do in these assays?
Rce1 inhib: inactive; CSC inhib: -7; UUG fidelity: 1; MT1-MMP act inh: -1; HIV Env fusion: 6; eIF4H inh: 2; PABP polyA inh: -1; MT1-MMP act inh RFP: -11

Results for O=C(COC(=O)c1cc(Cl)ccc1Cl)NCCN1C(=O)CSC1=O ?
Rce1 inhib: inactive; CSC inhib: -11; MT1-MMP act inh: -8; HIV Env fusion: 1; eIF4H inh: 10; PABP polyA inh: -10; MT1-MMP act inh RFP: -3

What do the screens show for `COCc1ccc(C(=O)N2CCCC(C(=O)c3cc(F)ccc3F)C2)s1` (stereo unspecified)?
Rce1 inhib: inactive; CSC inhib: 11; UUG fidelity: -6; MT1-MMP act inh: 11; HIV Env fusion: 19; eIF4H inh: 2; PABP polyA inh: 0; MT1-MMP act inh RFP: 5

Results for COc1ccc(-c2c(-c3ccccc3)n(C)c3ccccc23)cc1 ?
UUG fidelity: 0; MT1-MMP act inh: -1; HIV Env fusion: -7; MT1-MMP act inh RFP: 4

How did COCCCn1c(-c2ccc(S(=O)(=O)N3CCOCC3)cc2)csc1=Nc1ccccc1 do in these assays?
Rce1 inhib: inactive; CSC inhib: -5; MT1-MMP act inh: -14; HIV Env fusion: 70*; eIF4H inh: 7; PABP polyA inh: 15; MT1-MMP act inh RFP: -27

Results for CCc1c(C)sc(NC(=O)c2ccc(Br)o2)c1C(=O)OC ?
Rce1 inhib: inactive; CSC inhib: 29; UUG fidelity: -1; MT1-MMP act inh: -3; HIV Env fusion: 4; eIF4H inh: -12; PABP polyA inh: -6; MT1-MMP act inh RFP: 0

How did N#CCCN/N=C(/Cc1nc2ccccc2[nH]1)c1cccc(Cl)c1 do in these assays?
CSC inhib: -3; UUG fidelity: -21; MT1-MMP act inh: -9; eIF4H inh: 30; PABP polyA inh: 35; MT1-MMP act inh RFP: 1

Results for Cc1ccccc1-c1cc(=O)c2c(O)cccc2o1 ?
Rce1 inhib: inactive; CSC inhib: -17; UUG fidelity: 1; MT1-MMP act inh: -2; HIV Env fusion: -19; eIF4H inh: -2; PABP polyA inh: -17; MT1-MMP act inh RFP: 0

What do the screens show for `COc1cccc(-c2nnc(SCC(=O)Nc3cc(C)on3)o2)c1`?
Rce1 inhib: inactive; CSC inhib: -8; MT1-MMP act inh: 5; eIF4H inh: 9; PABP polyA inh: 3; MT1-MMP act inh RFP: 3

Results for Cc1ccc(S(=O)(=O)NCC(=O)N/N=C/c2ccccc2O)cc1 ?
Rce1 inhib: inactive; CSC inhib: 10; UUG fidelity: -1; MT1-MMP act inh: 2; HIV Env fusion: -8; eIF4H inh: -6; PABP polyA inh: -5; MT1-MMP act inh RFP: -1

How did O=C(COn1nnc2ccc(S(=O)(=O)N3CCOCC3)cc21)NCCc1ccccc1 do in these assays?
Rce1 inhib: inactive; UUG fidelity: 18; MT1-MMP act inh: 4; HIV Env fusion: inactive; MT1-MMP act inh RFP: 2

How did O=c1cc(-c2ccccc2Cl)oc2c(NS(=O)(=O)c3cc(Cl)cc(Cl)c3O)ccc(O)c12 do in these assays?
Rce1 inhib: inactive; CSC inhib: 102*; UUG fidelity: -20; MT1-MMP act inh: -42; eIF4H inh: 20; PABP polyA inh: 4; MT1-MMP act inh RFP: -28

Results for CCN(c1ccccc1)S(=O)(=O)c1cc([N+](=O)[O-])ccc1N ?
Rce1 inhib: inactive; CSC inhib: -3; UUG fidelity: -14; MT1-MMP act inh: 0; HIV Env fusion: 16; eIF4H inh: -13; PABP polyA inh: 40; MT1-MMP act inh RFP: 0

How did O=C(CN1C(=O)c2ccccc2S1(=O)=O)Nc1cccc(S(=O)(=O)N2CCCCC2)c1 do in these assays?
CSC inhib: 24; UUG fidelity: -6; MT1-MMP act inh: 7; HIV Env fusion: -24; MT1-MMP act inh RFP: -3

What do the screens show for `CCSc1nc2ccccc2n1Cc1cccc([N+](=O)[O-])c1`?
Rce1 inhib: inactive; CSC inhib: 14; UUG fidelity: -6; MT1-MMP act inh: 0; HIV Env fusion: -11; eIF4H inh: -6; PABP polyA inh: -8; MT1-MMP act inh RFP: 1

What do the screens show for `CC(C)OC(=O)c1c(NC(=O)c2cccs2)sc2c1CCCC2`?
Rce1 inhib: inactive; CSC inhib: 22; UUG fidelity: -22; MT1-MMP act inh: -6; HIV Env fusion: -6; eIF4H inh: -8; PABP polyA inh: -4; MT1-MMP act inh RFP: -4

What do the screens show for `CCCCc1nc2ccccc2n1Cc1nnc2n1-c1ccccc1SC2`?
Rce1 inhib: inactive; UUG fidelity: -4; MT1-MMP act inh: -3; eIF4H inh: -3; PABP polyA inh: 2; MT1-MMP act inh RFP: -1

Results for CCOc1ccc(C)cc1S(=O)(=O)n1cnc2ccccc21 ?
Rce1 inhib: inactive; CSC inhib: 59; UUG fidelity: 9; MT1-MMP act inh: -7; HIV Env fusion: 11; eIF4H inh: 12; PABP polyA inh: -9; MT1-MMP act inh RFP: -15

Results for COC(C(=O)Nc1ccnn1C1CCN(Cc2ccccn2)CC1)c1ccccc1 (stereo unspecified) ?
CSC inhib: -5; UUG fidelity: -18; MT1-MMP act inh: 1; HIV Env fusion: -2; eIF4H inh: 2; PABP polyA inh: -6; MT1-MMP act inh RFP: 7

What do the screens show for `CCN1/C(=C/c2sc(-c3ccccc3C)c[n+]2C)Sc2ccccc21`?
Rce1 inhib: inactive; MT1-MMP act inh: -17; HIV Env fusion: 15; eIF4H inh: 5; PABP polyA inh: 2; MT1-MMP act inh RFP: -34

What do the screens show for `Nc1nnc(Cc2ccc(Cl)c(Cl)c2)s1`?
Rce1 inhib: inactive; CSC inhib: -4; UUG fidelity: -19; MT1-MMP act inh: -1; eIF4H inh: -1; PABP polyA inh: -2; MT1-MMP act inh RFP: -2

Results for CCC(=O)N(c1nnc(SCC(=O)Nc2sccc2C(N)=O)s1)C1CC1 ?
UUG fidelity: -27; MT1-MMP act inh: -1; HIV Env fusion: -5; MT1-MMP act inh RFP: 0

What do the screens show for `CC(=O)N/C(=N\c1nc(C)cc(C)n1)Nc1ccc2ccccc2c1`?
Rce1 inhib: inactive; CSC inhib: 8; UUG fidelity: -31; MT1-MMP act inh: 1; HIV Env fusion: -1; eIF4H inh: -16; PABP polyA inh: 11; MT1-MMP act inh RFP: -6
